Compound activity (PubChem)
Vaccinia Venus – vaccinia inhibition (Venus reporter); Potency, µM (highest dose often 36.5 µM), inactives show at the top dose activity change, negative = inhibition, actives largely listed as inhibitors; 330,000 compounds, 0.46% hits; Vaccinia virus Venus reporter expression, fluorescence; AID 720580; active means well fitted inhibition curve with a large enough effect; inconclusive means small, poorly fitted or top-dose-only effect; inactive means no such curve, though single readings can be large or run the other way; tested in A549 cells; also: nearly all actives have a fitted effect of over 30% in size; inactives centre near -10
VACV mCherry inh – vaccinia inhibition (mCherry reporter); Vaccinia virus mCherry reporter infection, fluorescence; about a quarter of the inactives have no number; Potency, µM (top dose mostly 36.5 µM), for the others: at the highest dose activity change, negative = inhibition, most hits filed as inhibitors; 310,000 compounds, 0.63% hits; AID 720579; active = well fitted inhibition curve with a large enough effect; inconclusive = small, poorly fitted or top-dose-only effect; inactive = no such curve, though single readings can be large or run the other way; tested in A549 cells; also: nearly all actives have a fitted effect of over 35% in size; inactives centre near -10
Starred values were filed as active, the others as inactive; i = inactive; ? = inconclusive; · = not tested or not shown; & = joins results of further samples; [ ] = dose if it differs, or a comment. % is scaled to controls: 0 for no effect and ±100 for the full control effect; potency is read from the fitted curve at half-maximal effect. An unsorted share of the library. About 0.88% of those tested had a hit in this group.

Results follow in this order: Vaccinia Venus, VACV mCherry inh
> Cc1ccc(C)c(OCCC(=O)OCC(=O)NC2CCCC2)c1
    -9%, i
> CN(C)CCNC(=O)Nc1ccc(F)cc1F
    -12%, i
> COc1ccc(CNC(=O)C2CCN(C(=O)c3ccc(-n4ccc5ccccc54)s3)CC2)cc1
    -25%, -15%
> C[C@H](CO)N1C[C@H](C)[C@@H](CN(C)C)Oc2c(NS(=O)(=O)c3ccccc3)cccc2C1=O
    -13%, i
> O=C(c1cccc(-c2nnc(-c3ccccc3)o2)c1)N1CCCCC1
    -20%, ·
> COc1cc(NC(=O)CSc2nc3c(c(=O)n(C)c(=O)n3C)n2C)cc(OC)c1
    4%, -1%
> Cc1c(OCc2ccccc2)cccc1OCc1ccccc1
    -2%, i
> CCNC(=O)C1CC(=O)N(Cc2ccc3c(c2)OCO3)C(=Nc2ccc(OCC)cc2)S1 (centres undefined)
    -10%, -17%
> O=C(Nc1ccc(Cl)cc1C(F)(F)F)C(Sc1nnc(-c2cccs2)o1)c1ccccc1 (centres undefined)
    ?, ?
> CCCN(CC(=O)Nc1ccc(Cl)cc1Cl)C(=O)/C=C/c1cccc([N+](=O)[O-])c1
    -22%, -18%
> Cc1cc(NCCCN2CCOCC2)n2c(nc3ccccc32)c1C#N
    -7%, 15%
> NC(=O)c1cc([N+](=O)[O-])ccc1NCc1cccnc1
    4%, 6%
> COCCCNC(=O)C1CCN(c2nc(C)cc(C)n2)CC1
    -4%, -12%
> O=C(Cn1c(=O)n(-c2cccc(Cl)c2)c(=O)c2sc3ccccc3c21)N1CCCC1
    -9%, -7%
> O=C(CN1CCN(C(=O)c2cccs2)CC1)Nc1ccc(Br)cc1
    -13%, -10%
> N#CC1(NC(=O)COC(=O)c2ccccc2[N+](=O)[O-])CCCCC1
    -10%, i
> Cc1ccc(/C(N)=N/OC(=O)Cc2cccc3ccccc23)cc1
    -20%, -25%
> Cc1ccc(-c2nc(C(=O)NCC3CCCO3)cc3c2[nH]c2ccccc23)cc1 (centres undefined)
    -26%, ?
> CCc1cc(C(=O)OC)c(NC(=O)CN2CCN(C(=O)c3ccco3)CC2)s1
    -9%, i
> Cc1cc(C)c(NC(=O)COC(=O)/C=C/c2cccs2)c(C)c1
    -9%, i
> NS(=O)(=O)c1cccc(NC(=O)CSc2nnc(C3CC3)n2-c2ccccc2)c1
    7%, -5%
> CC(=O)N1c2c(cc(Br)cc2S(=O)(=O)Nc2ccccc2C)CC1C (centres undefined)
    -8%, -5%
> CC1CCC(=NNC(=O)Cc2cccn2C)CC1 (centres undefined)
    -8%, i
> COc1ccc(C(=O)/C=C/c2ccc(N3CCCCC3)c([N+](=O)[O-])c2)c(OC)c1
    ?, 11µM*
> Cc1cc(N2CCCC2=O)c(N)cc1N
    -5%, -10%
> Cn1cc(S(=O)(=O)N2CCc3ccccc32)cc1C(=O)Nc1ccc(C(F)(F)F)cc1
    -23%, -16%
> CCCC(C)NC(=O)CSc1nnc(-c2c[nH]c3ccccc23)o1 (centres undefined)
    -10%, i
> CN(C)c1ccc(/C=C/c2nc3ccccc3o2)cc1
    -18%, 24%
> CN1CCN(C(=O)c2cc3c(c(-c4cccc(-c5cccnc5)c4)n2)[C@@H](CCO)N(C(=O)CC2CC2)C3)CC1
    -7%, i
> Cc1ccc(S(=O)(=O)N(Cc2ccccc2)Cc2ccco2)cc1
    -12%, ·
> O=C(NC(=S)Nc1cccc(NC(=S)NC(=O)c2ccccc2)c1)c1ccccc1
    5%, i
> COC(=O)N1C(=O)[C@](c2ccc(OC)cc2)(C(C)C)N1C(=O)OC
    -18%, ?
> O=C(NCCN1CCN(c2ccccc2)CC1)C1CCN(S(=O)(=O)c2cccc3nonc23)CC1
    -7%, ·
> COc1ccc(CCNc2ccc(N3C(=O)CC(C)C3=O)cc2[N+](=O)[O-])cc1OC (centres undefined)
    -15%, -25%
> CCOC(=O)c1ccccc1NC(=O)CCc1nc(-c2ccc(C)cc2)no1
    -5%[7.34 µM], -4%[7.34 µM]
> CCN(CC)CCn1c2c(c(SCC(=O)Nc3cc(OC)cc(OC)c3)nc1=O)CCC2
    -26%, -4%
> COc1cc(CC(=O)O)c([N+](=O)[O-])cc1OC
    -6%, -8%
> CC(=O)N(Cc1ccccc1)c1ccc(C(=O)O)cc1
    -4%, -9%
> Cc1cc(C(=O)COc2ccc(F)cc2Br)c(C)n1C1CC1
    -14%, -19%
> CCOC(=O)c1nnc(-c2ccccc2)nc1Sc1ccccc1Cl
    -38%, ·
> Cc1ccc(NC(=O)c2snc3ccc(Cl)cc23)cc1C
    -10%, -1%
> CCOc1ncccc1C(=O)NCc1cccc(OC)c1
    -5%, -6%
> Cc1cc(NC(=O)c2cccc([N+](=O)[O-])c2)no1
    -14%, i
> N=C1SCC(=O)N1c1ccccc1Cl
    -18%, -1%
> OCCN1CCSC1=S
    -8%, i
> O=C(CCCN1CCC(n2c(=O)[nH]c3ccccc32)CC1)c1ccc(F)cc1
    -12%, i
> Cc1ccc(NC(=O)CSCC(=O)Nc2nnc(C3CC3)s2)cc1
    5%, -1%
> CCOc1ccc(S(=O)(=O)N2CCN(C(=O)Cc3ccc(S(=O)(=O)N4CCOCC4)s3)CC2)cc1
    -6%, -1%
> Cc1cc(C)nc(Nc2ccc(O)cc2)n1
    -10%, -21%
> Cc1ccc(S(=O)(=O)N2Cc3cc(N4CCOCC4)ccc3-n3nncc3C2)cc1
    -7%, 0%
> COC(=O)c1ccc(C2/C(=C(\O)c3ccc(OC)c(C)c3)C(=O)C(=O)N2c2cc(C)on2)cc1 (centres undefined)
    6%, -8%
> CC1(C)CC(=O)C(N=Nc2cccc(F)c2C#N)=C(O)C1
    -16%, -30%
> CCN(CC)C(=O)[C@H]1CC(CC(=O)NCc2cccc(C(F)(F)F)c2)C(=O)N2CCc3c([nH]c4ccccc34)[C@]12C (some centres undefined)
    -22%, -13%
> Cc1ccc(C#N)c(=O)n1CC(=O)Nc1ccccc1C(F)(F)F
    -8%, 1%
> Cc1cccc2c1-c1sc(C(=O)Nc3nccs3)cc1CO2
    -10%, 1%
> Cc1cc(C)cc(N2CCn3c2nc2c3c(=O)n(Cc3ccc(Cl)cc3)c(=O)n2C)c1
    3%, 2%
> COc1ccc(CCNC(=O)COc2ccc(S(=O)(=O)NC(C)C)cc2)cc1OC
    -7%, -8%
> CCOc1ccc(Cn2nnc(C(=O)Nc3cccc(SC)c3)c2N)cc1
    -13%, -24%
> OC(c1ccccc1)(c1nc(-c2ccccc2)cs1)C(F)(F)F (centres undefined)
    5%, 33%[activator]
> Cc1cc(C)c(C(=O)CSc2nnc(-c3ccccc3Br)o2)cc1C
    -29%, ·

Next part:
Results follow in this order: Vaccinia Venus, VACV mCherry inh
> CC(c1ccco1)N(C(=O)C12CC3CC(CC(C3)C1)C2)c1ccccn1 (centres undefined)
    -4%, -7%
> CC(=O)c1cccc(NC(=S)NCc2ccco2)c1
    -3%, -12%
> COc1ccccc1-c1sc2cc3c(cc2c1-c1ccc(O)cc1)OCO3
    -23%, ?
> COC(=O)c1c(NC(=O)COC(=O)[C@@H](NS(=O)(=O)c2ccccc2)C(C)C)sc2c1CCC2
    ?, ?
> CCC(C(=O)N1CCN(c2cccc(C)c2C)CC1)n1nc(C)c2sc3ccccc3c2c1=O (centres undefined)
    -10%, -17%
> c1cc(-c2nn[nH]n2)ccc1CN1CCCCC1
    1%, ·
> COc1ccc(CCC(N)=O)cc1OC
    -10%, ·
> COc1cc(COc2ccc3c(C)c(CCC(=O)O)c(=O)oc3c2)cc(OC)c1OC
    -11%, i
> Cc1cc(C(=O)CC#N)c(C)n1-c1c(C)n(C)n(-c2ccccc2)c1=O
    -7%, i
> O=C(NC1CC(=O)N(c2ccccc2)C1)C1CCCCC1 (centres undefined)
    -10%[7.34 µM], -12%[7.34 µM]
> CCOC(=O)c1ccc(NC(=S)Nc2ccc3[nH]c(=O)[nH]c3c2)cc1
    1%, -6%
> O=C1c2ccccc2C(Nc2cccnc2)N1Cc1ccccc1Cl (centres undefined)
    -2%, 0%
> CCOC(=O)C1=CCN(S(=O)(=O)c2ccccc2Br)C1c1ccccc1 (centres undefined)
    4%, 1%
> Cc1ccc(CN(C)C(=O)c2cc(S(=O)(=O)N3CCOCC3)ccc2F)o1
    -12%, -10%
> CC1(C)C2CCC(C2)C1(C)NC(=O)CN1CCCC1 (centres undefined)
    -4%, -14%
> Cc1ccccc1NC(=O)Cc1nc(COC(=O)Cc2cccc(C(F)(F)F)c2)cs1
    -21%, -6%
> C=CCC[C@H](Cc1ccc(F)cc1)C(=O)OC[C@H](Cc1c[nH]c2ccccc12)NC(=O)[C@H](CC=C)CC(=O)NCCO
    ?, 0%
> COc1cccc(C(c2c(NC(=O)c3ccccc3)sc(C)c2C)N2CCN(C)CC2)c1 (centres undefined)
    -19%, i
> Cc1nnc(N(C)C(=O)c2ccc3c(c2)OCO3)s1
    -10%, -11%
> COc1ccccc1NC(=O)Nc1nc(C(N)C(C)C)cs1 (centres undefined)
    -19%, 5%
> COc1ccc(NS(=O)(=O)c2ccc3c(c2)CCN3C(=O)CCC(=O)O)cc1OC
    -19%, i
> O=C(Nc1ccncc1)c1ccc2ncsc2c1
    -18%, -3%
> O=C(CSc1nc2ccccc2n1CC(=O)N1CCCC1)NCc1ccc2c(c1)OCO2
    -5%, -7%
> COc1ccccc1N1CCN(C(=O)C(=O)c2cccc([N+](=O)[O-])c2)CC1
    -10%, i
> COc1cccc(C(NC(C)=O)c2nc(-c3cccc(O)c3)cs2)c1 (centres undefined)
    -16%, i
> CCC(C)C(CO)NCCCn1ccc(NC(=O)OCc2ccccc2)nc1=O (centres undefined)
    -7%, -27%
> Cc1ccc(S(=O)(=O)Nc2nc(CN3CCOCC3)nc3sc(C(=O)O)c(C)c23)cc1
    -4%, -20%
> CC[C@]12c3[nH]c4cc(CCC(=O)N(C)C)ccc4c3CCN1C(=O)[C@@H](CC(=O)NCCCOC)C[C@@H]2C(=O)N1CCN(C(=O)c2ccco2)CC1
    -3%, -15%
> O=C(NCCc1ccc(Cl)cc1)C1CCC(=O)N1Cc1ccc(F)cc1 (centres undefined)
    -8%, i
> Cc1ccc(N2CC(NC(=O)c3cc4ccccc4o3)CC2=O)cc1 (centres undefined)
    -4%[7.34 µM], -6%[7.34 µM]

Quoted at random: four records from the list
Results follow in this order: Vaccinia Venus, VACV mCherry inh
> Cc1nnc(N(C)C(=O)c2ccc3c(c2)OCO3)s1
    -10%, -11%
> COc1cccc(C(NC(C)=O)c2nc(-c3cccc(O)c3)cs2)c1 (centres undefined)
    -16%, i
> Cc1ccc(CN(C)C(=O)c2cc(S(=O)(=O)N3CCOCC3)ccc2F)o1
    -12%, -10%
> COc1ccc(CCC(N)=O)cc1OC
    -10%, ·

Carrying on:
Results follow in this order: Vaccinia Venus, VACV mCherry inh
> Cc1cccc(C(=O)NCN2CCN(c3ccccc3C#N)CC2)c1
    -10%&-15%, -19%&-10%
> Cc1ccc(C)c(CN2C(=O)c3ccccc3S(=O)(=O)c3ccc(C(=O)OCC4CCCO4)cc32)c1 (centres undefined)
    2%, -12%
> O=C1CCSc2ccc(Cl)cc2N1Cc1cccc(Cl)c1
    -16%, ·
> Nc1nonc1-n1nnc(C(=O)N/N=C/c2ccccc2)c1CSc1ccc(Cl)cc1
    -18%, -6%
> Cc1ccc2c(=O)cc(C(=O)Nc3nnc(C)s3)oc2c1
    -2%, -13%
> C=CC[C@@H](CC(=O)N(CCO)Cc1ccccc1)C(=O)N[C@H](COC(=O)[C@@H](CC=C)CC(=O)OC(C)(C)C)Cc1c[nH]c2ccccc12
    ?, -30%
> COc1ccc(Cl)cc1NC(=O)Cn1c(=O)n(Cc2ccco2)c(=O)c2ccc(C(=O)NC3CCCC3)cc21
    0%, 13%
> O=C(COC(=O)c1cc(=O)[nH]c(=O)[nH]1)NCc1ccccc1
    4%, -13%
> c1ccc(-c2ccc(-c3ccccn3)s2)nc1
    18%, -3%
> CS(=O)(=O)N1CCN(C(=O)c2cc(-c3ccncc3)nc3ccc(Cl)cc23)CC1
    -13%, ·
> CCOC(=O)c1c(-c2ccc(OC)cc2)oc2ccc(OCc3ccc(Br)cc3)cc12
    7%, -14%
> CC(=O)c1cccc(NC(=O)c2cc3sc(Cl)cc3n2C)c1
    -25%, -15%
> CCOC(=O)c1sc(C)c2c(=O)n(Cc3ccc(Cl)cc3)cnc12
    -11%, ?

One compound at a time, as listed above. Values in the order: Vaccinia Venus, VACV mCherry inh
CCOC(=O)c1sc(C)c2c(=O)n(Cc3ccc(Cl)cc3)cnc12 in the list: -11%, ?
c1ccc(-c2ccc(-c3ccccn3)s2)nc1 in the list: 18%, -3%
C=CC[C@@H](CC(=O)N(CCO)Cc1ccccc1)C(=O)N[C@H](COC(=O)[C@@H](CC=C)CC(=O)OC(C)(C)C)Cc1c[nH]c2ccccc12 in the list: ?, -30%
COc1ccc(Cl)cc1NC(=O)Cn1c(=O)n(Cc2ccco2)c(=O)c2ccc(C(=O)NC3CCCC3)cc21 in the list: 0%, 13%
O=C(COC(=O)c1cc(=O)[nH]c(=O)[nH]1)NCc1ccccc1 in the list: 4%, -13%
